# KCNQ2 enhance: potentiators of rat KCNQ2 potassium channel. CHO-K1 KCNQ2, FluxOR thallium flux fluorescence; stronger effect = higher value. O88943. 310,000 tested, 0.54% active. AID 2239. B-score at 10 µM;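 active means fluorescence ratio B-score at least 3 SD of library B-scores, with initial fluorescence B-score within 3 SD, cut at about 5.3 in these data; same plate scores as AID 2156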;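 further: B-score of peak minus minimum over baseline fluorescence ratio after K+ and Tl+ stimulus; positive B-score means potentiation of KCNQ2 with more thallium influx and brighter signal; only the inactives scoring about 0 or higher are listed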
# Target sequence (O88943 whole entry, looked up): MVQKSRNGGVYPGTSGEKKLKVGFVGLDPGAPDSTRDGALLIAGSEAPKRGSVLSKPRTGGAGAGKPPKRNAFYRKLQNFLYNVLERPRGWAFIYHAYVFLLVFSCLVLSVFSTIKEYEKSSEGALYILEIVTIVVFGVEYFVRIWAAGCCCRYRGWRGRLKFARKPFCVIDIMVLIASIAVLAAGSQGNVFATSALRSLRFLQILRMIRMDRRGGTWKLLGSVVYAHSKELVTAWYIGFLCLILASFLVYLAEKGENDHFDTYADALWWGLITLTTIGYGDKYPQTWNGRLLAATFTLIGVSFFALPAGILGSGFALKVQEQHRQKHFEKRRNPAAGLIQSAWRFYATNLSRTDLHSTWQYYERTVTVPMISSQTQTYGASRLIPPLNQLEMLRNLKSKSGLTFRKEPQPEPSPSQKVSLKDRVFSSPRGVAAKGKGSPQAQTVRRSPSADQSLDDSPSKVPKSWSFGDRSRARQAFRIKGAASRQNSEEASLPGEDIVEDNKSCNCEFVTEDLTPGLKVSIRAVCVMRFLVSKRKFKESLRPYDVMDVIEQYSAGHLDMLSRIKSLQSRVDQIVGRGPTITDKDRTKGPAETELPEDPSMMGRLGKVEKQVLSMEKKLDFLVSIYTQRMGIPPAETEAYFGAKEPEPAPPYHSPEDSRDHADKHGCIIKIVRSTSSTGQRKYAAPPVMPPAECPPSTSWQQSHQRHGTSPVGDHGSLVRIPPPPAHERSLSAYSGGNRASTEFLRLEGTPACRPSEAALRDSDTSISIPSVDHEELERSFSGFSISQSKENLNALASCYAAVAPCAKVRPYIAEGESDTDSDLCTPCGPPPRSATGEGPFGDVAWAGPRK
# KCNQ2 enhance baseline: further read-out of KCNQ2 enhance, marked with its call; B-score; compound at 10 µM; measured here: initial fluorescence intensity artifact check;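 brightness before thallium and not channel activity; 0 = typical well and far values either way flag optical interference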
# * = called active by the depositor; . = not tested or not shown.
SMILES,KCNQ2 enhance,KCNQ2 enhance baseline
CCC(=O)Nc1cc2nn(-c3ccccc3)nc2cc1Cl,0.83,0.11
O=C(c1ccco1)N1CCN(c2ccnc3cc(Cl)ccc23)CC1,0.6,-0.56
Cc1cc(C)n(Cc2ccc(F)cc2)c(=O)c1C#N,0.42,-1.3
CCCNC(=O)C1CCN(S(=O)(=O)c2cccs2)CC1,1.1,-0.92
Fc1ccc(F)c(C2=NNC(=Nc3ccccc3F)SC2)c1,0.06,-1.1
Cc1c(OCC(=O)NCC2CCC(C(=O)O)CC2)ccc2c(-c3ccccc3)cc(=O)oc12 (stereo unspecified),0.21,0.9
CC(C)C1(C)C(=O)N=C2c3ccccc3C(=O)N21 (stereo unspecified),0.54,-0.87
CCCCOCCCNS(=O)(=O)Cc1ccccc1,0.12,-1.6
CC(C)(C)NC(=O)NC(=O)CN1CCCCCCC1,0.79,-0.11
CCOc1ccc(NC(=O)CC2Nc3ccccc3NC2=O)cc1 (stereo unspecified),0.31,0.72
COc1ccc(/C=C/C(=O)O)cc1S(=O)(=O)N1CCCCC1,0.02,-1.3
CCc1ccc2[nH]c(=O)c(CN(CC3CCCO3)C(=S)NCc3ccco3)cc2c1 (stereo unspecified),0.1,-0.22
COc1ccc(CCNC(=O)c2cccc(NC3=NC4CS(=O)(=O)CC4S3)c2)c(OC)c1 (stereo unspecified),0.61,-0.47
Cc1nnnn1CC(=O)Nc1ccccc1[N+](=O)[O-],0.53,0.46
CC(=O)c1cccc(NC(=O)CSc2nc(N3CCCCC3)nc(N3CCCCC3)n2)c1,3.3,-1.6
CCOc1ccc(C(C)=O)cc1CSc1nnc(-c2ccncc2)n1CCOC,2.2,1.1
COc1ccc(-n2nc3c(c2NC(=O)Cc2cccc(C)c2)CS(=O)C3)cc1 (stereo unspecified),0.4,0.1
Cc1n[nH]c(C)c1N=Nc1ccc(Br)cc1,0.26,0.39
Cc1ccccc1NC(=S)Nc1ccc(Br)cc1,0.25,1.3
Cc1ccc(Nc2ccccc2)nn1,1.2,-3.5
CC(O)[C@H]1CN=C(N)N1CCc1cc(C(F)(F)F)cc(C(F)(F)F)c1 (stereo partly specified),0.66,1.2
CCOc1ccc(S(=O)(=O)N(C)CC(=O)NCc2ccccn2)cc1Cl,1.4,-0.05
CN(C)c1nnnn1-c1ccc(Cl)cc1,0.08,0.32
COc1cc(C=C2C(=O)c3ccccc3C2=O)cc(OC)c1,0.4,-0.45
Cc1ccc(OCC(=O)O/N=C(\N)c2ccncc2)cc1C,1.2,2.4
SMILES,KCNQ2 enhance,KCNQ2 enhance baseline
O=C(COC(=O)c1ccc(NC(=O)C2CC=CCC2C(=O)O)cc1)c1ccccc1 (stereo unspecified),0.12,-0.04
Cc1cc(C)c(C#N)c(N2CCC(C(N)=O)CC2)n1,3.7,-0.85
COc1ccc(N/N=C(/Oc2ccc([N+](=O)[O-])cc2)C(C)=O)cc1,0.2,-1.1
CCCNC(=O)Cc1ncn[nH]1,0.57,1.3
COc1ccc(N2C(=O)CC(n3cnc4ccccc43)C2=O)cc1 (stereo unspecified),0.22,1
CC(=O)N1CCCc2cc(S(=O)(=O)N3CCN(c4ccccn4)CC3)ccc21,0.03,0.03
COc1ccccc1NS(=O)(=O)NC(=O)c1cn(C)c2ccccc12,0.02,-0.11
Cc1ccc(-c2ccc(S(=O)(=O)N3CC(C)OC(C)C3)cc2)cc1 (stereo unspecified),0.34,-0.56
CCN=C1SC(C(=O)Nc2cccc(C(=O)O)c2)CC(=O)N1CC (stereo unspecified),1.6,0.28
O=C1NCC(CN(c2ccccc2)c2ccccc2)O1 (stereo unspecified),1.4,-1.4
CC(C)c1ccc2nc(N)sc2c1,0.19,0.48
CC(c1ccccc1)C(CC(=O)O)C(=O)Nc1ccc(Cl)c(Cl)c1 (stereo unspecified),0.24,0.97
CC1CC(C)CN(C(=O)C2CCC(CNS(=O)(=O)c3ccccc3)CC2)C1 (stereo unspecified),1.8,-1.2
Cc1cccc(-n2ncc3c2CCCC3NC(=O)CC(F)(F)F)c1C (stereo unspecified),0.9,-0.54
COCCNC(=O)C(c1ccc(O)cc1)N(Cc1ccccc1)C(=O)CCC(=O)Nc1nccs1 (stereo unspecified),0.01,4
O=C(CNC1CCCCCC1)Nc1ccc(N2CCCC2)cc1,1.4,-1.1
CC(C)c1ccc(OCc2nnc(SCC(=O)N3CCCCC3)o2)cc1,2.8,-0.09
CCCCn1cnc2sc3c(c2c1=N)CCCC3,0.47,1.4
COC(=O)c1ccc(NC2CC(=O)N(c3ccccc3C)C2=O)cc1 (stereo unspecified),0.01,-1.9
CSc1nnc2c(n1)[nH]c1c(C)cccc12,0.55,-0.42
O=C1CSC(c2ccccc2)N1c1ccccc1F (stereo unspecified),0.07,-0.29
CCOC(=O)N1CCC(=NNc2ncc(C(F)(F)F)cc2Cl)CC1,0.21,-0.81
Cc1ccc(C)c(C(=O)CSc2nc(C)cc(=O)[nH]2)c1,0.04,0.16
CCOC(=O)C(CC)n1nc(C)n2c(cc3occc32)c1=O (stereo unspecified),2.2,0.34
S=c1[nH]c2ncccc2o1,0.65,0.44
SMILES,KCNQ2 enhance,KCNQ2 enhance baseline
O=C(c1ccc(Cl)c(S(=O)(=O)N2CCOCC2)c1)N(Cc1nnc(-c2ccccc2Cl)o1)C1CC1,1.2,-1.2
CC1CN(C(=O)COC(=O)c2cccc(NS(=O)(=O)c3ccccc3)c2)CC(C)O1 (stereo unspecified),1.6,-1.9
CN(CC(=O)Nc1cc(Cl)cc(Cl)c1)Cc1cccs1,-5.6,.
CCCCCOc1ccc(NC(=O)C(=O)NCCC2=CCCCC2)cc1,1,-0.32
O=C(c1cc(COc2ccc3c(c2)CCCC3)on1)N1CCCC1,1.1,0.53
COc1ccccc1CNS(=O)(=O)c1cccc(S(=O)(=O)N2CCOCC2)c1,0.22,0.03
Cc1ccc(S(=O)(=O)N2CCCCC2)c2nsnc12,0.38,-2.3
CCOc1ccc(N(CC)C(=O)c2cn(CC)c(=O)c3cc(OC)c(OC)cc23)cc1,1.2,-0.23
O=C1OCc2ccc(NC(=O)C3CCCCC3)cc21,0.05,0.29
Cc1ccc(NC(=O)C2CCN(C(=O)c3ccco3)CC2)cc1,1.2,0.14
O=C(CSc1ncccn1)N/N=C/c1cccc(OC2CSC2)c1,0.03,-0.82
CCCCCCC(=O)N/N=C/Cc1ccccc1,4.4,0
O=C(NN1C(=O)c2cc(Br)ccc2NC1c1cc(Br)cc(Br)c1O)c1ccncc1 (stereo unspecified),1.6,-0.55
CCCCOc1c(Br)cc(/C=C2\N=C(C)OC2=O)cc1OCC,0.76,0.98
CCOC(=O)C1=C(COC(=O)CNC(=O)c2cc(OC)c(OC)c(OC)c2)NC(=O)NC1C (stereo unspecified),0.04,0.62
Cc1ccc(C2=NN(C(=O)C3CCCO3)C(c3ccco3)C2)cc1 (stereo unspecified),0.53,-0.63
CCN1/C(=c2/s/c(=C3/C(=O)N(c4ccccc4)N=C3C)n(CC)c2=O)C=Cc2ccccc21,0.44,-0.79
C/C(=N/OC(=O)C1CC1)c1cc(-c2ccc(Cl)cc2)no1,0.29,-0.29
CCN(CC)S(=O)(=O)N1CCC(C(=O)NCc2ccc3c(c2)OCO3)CC1,0.15,0.72
COC(=O)[C@H](Cc1ccccc1)NC(=O)NCC1CCCO1 (stereo partly specified),0.48,0.53
C[C@H](NC(=O)c1nc[nH]c1C(=O)N[C@@H](C)c1ccccc1)C(=O)OC(C)(C)C,0.04,0.08
CCCOc1ccc(-c2c(C(=O)N/N=C/c3ccc(C)o3)nnn2-c2nonc2N)cc1,0.05,0.86
Cc1cc(NC(=O)CCNS(=O)(=O)c2ccc3[nH]c(=O)oc3c2)ccc1Br,0.43,-1.1
Cc1ccc(C(=O)NC(=S)N2CCN(c3ccccc3F)CC2)cc1,2.7,-2
CN(C)C(CNC(=O)c1cnc(Cl)c(Cl)c1)c1ccccc1 (stereo unspecified),0.03,-0.23
SMILES,KCNQ2 enhance,KCNQ2 enhance baseline
Cc1cccc(Cn2nc(-n3cccc3)c3c(C)cc(C)nc32)c1,0.05,0.03
CCC(=O)Nc1ccc(-c2nnc(SCC(=O)Nc3nccs3)n2C)cc1,0.4,1.8
COc1cc(NC(=O)Nc2ccccc2)c(OC)cc1NC(=O)CN1CCCCC1,1.3,0.63
CC(=O)c1cccc(NC(=O)CCn2c(=O)oc3ccccc32)c1,1.2,1.3
CC(=O)c1ccc(NC(=O)c2ccccc2Sc2ncnc3sc(C)c(C)c23)cc1,0.87,1.1
CC(C)C(C(=O)NCC1CCCO1)N(C(=O)CNS(=O)(=O)c1ccc(F)cc1)c1ccccc1 (stereo unspecified),0.56,-0.68
COc1ccccc1Nc1nc(C)cc(=O)[nH]1,0.1,-1.3
COc1ccc(C(=O)NC(=S)Nc2cccnc2)cc1[N+](=O)[O-],0.2,2.1
CN(C)S(=O)(=O)N1CCC(Oc2cccc(C(=O)N3CCSCC3)c2)CC1,0.36,-1.4
COCCn1c(SCC(=O)Nc2ccc(F)cc2)nc2ccccc2c1=O,2.7,-1
CC1=Nc2ccc(Br)cc2C(c2ccccc2)N1CC(=O)NN (stereo unspecified),1.6,0.31
C/C(=N\NC(=O)CN(c1ccccc1Br)S(C)(=O)=O)c1cccs1,0.44,-0.04
CC(C)CCNC(=O)CN(C(=O)CCC(=O)Nc1ccccn1)c1ccc2c(c1)OCCO2,0.38,-0.98
O=C(NS(=O)(=O)Oc1ccc(F)c(Cl)c1)OC[C@@H]1CCCN2CCCCC12 (stereo partly specified),0.77,-0.62
CCOc1ccc(OCCOC(=O)CN(C)S(=O)(=O)c2ccc(NC(C)=O)cc2)cc1,0.55,2.4
Cc1ccc(-c2cnn(-c3cccc([N+](=O)[O-])c3)c2N)cc1,1.8,0.02
O=C(/C=C\N1CCOCC1)c1ccc(Br)cc1,0.02,-0.68
N#CCOc1ccc2oc(-c3ccco3)cc(=O)c2c1,1.2,0
O=C(O)c1ccccc1NC(=O)N1CCOCC1,0.18,-1.1
Cc1cc(=O)[nH]c(-c2cccnc2)n1,0.55,-0.13
COc1ccc(CNC(=O)Cn2nc(-c3ccc4c(c3)OCCO4)ccc2=O)cc1,0.43,0.31
COC(=O)C1=C(SC)N(c2ccccc2)C(c2ccccc2)CC1=O (stereo unspecified),0.84,-0.06
Cc1cc(C(=O)COc2nncc3ccccc23)c(C)n1C,0.5,-1.1
COc1ccc2c(CC(=O)NCc3ccc4c(c3)OCO4)coc2c1,0.51,-0.74
CCOC(=O)c1c(C)nc(SCC(N)=O)c(C#N)c1-c1ccccc1,0.8,-0.31

# Compound profiles, as listed above. Values in the order: KCNQ2 enhance | KCNQ2 enhance baseline
# Cc1cc(C(=O)COc2nncc3ccccc23)c(C)n1C across the screens: 0.5 | -1.1
# Cc1cccc(Cn2nc(-n3cccc3)c3c(C)cc(C)nc32)c1 across the screens: 0.05 | 0.03

# The results go on.
SMILES,KCNQ2 enhance,KCNQ2 enhance baseline
COc1ccc(/C=N/NC(=O)c2cccnc2)cc1CSc1ccccn1,0.66,1.1
O=C(Cc1ccccc1)N/N=C/C=C/c1ccccc1[N+](=O)[O-],2,-1.4
CCNC(=S)Nc1cccc(NC(=O)c2ccccc2O)c1,0.07,-2.1
CCN(c1ccccc1)S(=O)(=O)c1nnc(NC(=O)CC(C)C)s1,0.18,-0.01
CNC(=O)Cn1c(C)cc(=O)c2cccc(OC)c21,0.08,0.17
CCOc1cc(/C=C/C(=O)OCC(=O)NC2CCS(=O)(=O)C2)ccc1OCc1ccccc1 (stereo unspecified),0.54,-2.7
CCCCSc1nnc(-c2ccc(C)cc2)o1,0.15,-1.5
COc1ccccc1NC(=O)C1CCCN1C(=O)NCc1ccccc1 (stereo unspecified),1.1,-0.58
O=C(Nc1ccccc1-c1ccccc1)c1cccs1,0.38,-0.85
Cc1cc(OCC(=O)N2CCN(c3ccc(F)cc3)CC2)c2c(C)cc(=O)oc2c1,0.81,0.77
CC(=O)c1ccc(Cc2cnc(N)s2)cc1,0.22,-2
Cc1c(NC(=S)NC(=O)c2sc3ccccc3c2Cl)cccc1C(=O)O,0.24,0.89
N#Cc1ccccc1NC(=S)NC(=O)c1cccs1,1.6,0.01
OC(CNCc1ccccc1C(F)(F)F)C(F)(F)F (stereo unspecified),0.66,-1.9
O=C1/C(=C\c2cc(Br)cc(Br)c2O)SC(=S)N1Cc1ccccc1,3.1,-0.91
COc1ccccc1N1CCN(C(=O)c2nn(C)c3c2CS(=O)(=O)c2ccccc2-3)CC1,1.5,-0.04
O=C(CSc1nnc(-c2ccncc2)n1-c1ccccc1Cl)Nc1ccc(C(=O)O)cc1,0.76,1.9

# Structures from the list above that have an aryl thioether with sulfur outside any ring, in the order listed:
SMILES,KCNQ2 enhance,KCNQ2 enhance baseline
CC(=O)c1cccc(NC(=O)CSc2nc(N3CCCCC3)nc(N3CCCCC3)n2)c1,3.3,-1.6
CCOc1ccc(C(C)=O)cc1CSc1nnc(-c2ccncc2)n1CCOC,2.2,1.1
CC(C)c1ccc(OCc2nnc(SCC(=O)N3CCCCC3)o2)cc1,2.8,-0.09
CSc1nnc2c(n1)[nH]c1c(C)cccc12,0.55,-0.42
Cc1ccc(C)c(C(=O)CSc2nc(C)cc(=O)[nH]2)c1,0.04,0.16
O=C(CSc1ncccn1)N/N=C/c1cccc(OC2CSC2)c1,0.03,-0.82
CCC(=O)Nc1ccc(-c2nnc(SCC(=O)Nc3nccs3)n2C)cc1,0.4,1.8
CC(=O)c1ccc(NC(=O)c2ccccc2Sc2ncnc3sc(C)c(C)c23)cc1,0.87,1.1
COCCn1c(SCC(=O)Nc2ccc(F)cc2)nc2ccccc2c1=O,2.7,-1
CCOC(=O)c1c(C)nc(SCC(N)=O)c(C#N)c1-c1ccccc1,0.8,-0.31
COc1ccc(/C=N/NC(=O)c2cccnc2)cc1CSc1ccccn1,0.66,1.1
CCCCSc1nnc(-c2ccc(C)cc2)o1,0.15,-1.5
O=C(CSc1nnc(-c2ccncc2)n1-c1ccccc1Cl)Nc1ccc(C(=O)O)cc1,0.76,1.9

# This is a subset; count on the stated rates, not on these rows.
